Bioassay records: PubChem BioAssay, several laboratories
Beta cell apopt: beta cell apoptosis inhibition. INS-1E cytokine-induced death, ATP luminescence, 48 h; percent of positive-control rescue, neutral wells zero. protection from apoptosis, % (no concentration beside the values). 300,000 compounds, 0.8% hits;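 active means all replicates at 75% or more, or half of them and the mean; inconclusive means half reach 75% but not the mean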;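 further: 0% = cytokine-treated negative control wells and 100% = positive control rescue; higher means more ATP so stronger rescue from cytokine killing; wells of about 40 µL received 100 nL stock; the first replicate is given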
LANA-H2B inh: blocks KSHV LANA binding to histone H2A/H2B. AID 2629. 320,000 compounds, 0.6% hits. inhibition, % (no concentration beside the values). cell-free LANA-H2A/H2B peptide, fluorescence polarization. Q9QR71; in the data active means inhibition mostly above about 10%, no sharp cut-off; inactive means mostly below about 6.7%;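 further: stock transfer was 7.5 nL into about 10 µL; 0% = median of vehicle wells and 100% = median of positive control wells; one replicate is shown; the record names a cut of 25% in any replicate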
ALR inh: blocks human ALR sulfhydryl oxidase activity | 290,000 compounds, 3.8% hits | purified ALR, DTT oxidation, H2O2 HRP-luminol luminescence | inhibition, % (test concentration not listed) | AID 485317 | P55789;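 active means mean and each replicate at 75% or more; inconclusive means only one of the two met; inactive means neither met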;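 further: stock transfer was 7.5 nL into about 7.5 µL; 0% = neutral wells and 100% = wells with inactivated enzyme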
Target sequence (P55789 whole entry, looked up): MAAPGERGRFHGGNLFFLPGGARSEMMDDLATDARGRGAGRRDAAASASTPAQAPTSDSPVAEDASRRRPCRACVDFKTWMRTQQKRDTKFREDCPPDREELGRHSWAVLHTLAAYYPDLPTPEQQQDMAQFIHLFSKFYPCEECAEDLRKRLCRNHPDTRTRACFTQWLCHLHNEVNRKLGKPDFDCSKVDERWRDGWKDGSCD
Calb FLC: C. albicans growth modulation with fluconazole; C. albicans CaCi-2 (fluconazole-resistant clinical isolate) + fluconazole, Alamar Blue growth, 48 h; growth inhibition, % (test concentration not listed); 300,000 compounds, 0.57% hits; AID 1979;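 active means most replicates above 75%; inconclusive means exactly half above 75%; inactive means most below 75%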;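 further: all wells also contain fluconazole at 8 µg/ml as a sub-toxic cotreatment; 0% = median of DMSO wells and 100% = median of geldanamycin control wells; wells of about 8 µL received 7.5 nL stock; the first replicate is given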
B2AR ag: agonists of human beta-2 adrenergic receptor inducing internalization | P07550 | Am2.2-beta2AR cells, FAP receptor internalization, flow cytometry; reference of the scale not given here | response, % (concentration not given with the values) | 340,000 compounds, 0.43% hits;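 active means response above a set limit, near 3 SD of response in nonfluorescent compounds, cut at about 42% in these data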;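 further: stock transfer was 100 nL into about 11 µL; a reference agonist was the positive control; negative values mostly stem from fluorescent compounds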
Target sequence (P07550 whole entry, looked up): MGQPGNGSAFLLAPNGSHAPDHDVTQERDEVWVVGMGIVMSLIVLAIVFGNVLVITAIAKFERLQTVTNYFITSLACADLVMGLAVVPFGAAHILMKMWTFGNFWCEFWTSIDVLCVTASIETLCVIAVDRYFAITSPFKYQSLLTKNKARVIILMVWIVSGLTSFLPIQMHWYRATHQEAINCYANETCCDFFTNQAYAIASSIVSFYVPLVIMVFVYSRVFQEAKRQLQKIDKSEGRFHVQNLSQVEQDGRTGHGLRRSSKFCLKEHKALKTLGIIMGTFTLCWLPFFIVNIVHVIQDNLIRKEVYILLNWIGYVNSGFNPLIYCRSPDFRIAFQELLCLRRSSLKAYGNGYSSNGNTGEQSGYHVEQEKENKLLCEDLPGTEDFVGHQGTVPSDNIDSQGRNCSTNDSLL
Bfl-1 A1 inh: inhibitors of the anti-apoptotic protein A1, read as caspase activation. MEF A1-2A-BIM cells, Caspase-Glo 3/7 luminescence, 3 h; percent of clofoctol response, vehicle zero. caspase activation, % (concentration not given with the values). 330,000 compounds, 0.066% hits;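 active means over half of replicate activation scores above 10%, or exactly half above 10 with the replicate mean above 10; inconclusive means replicate mean below 10 yet half the replicates above 10; inactive means over half of replicates below 10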;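 further: wells of about 30 µL received 50 nL stock; many hits fall short of the cut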
T cruzi inh: T. cruzi replication inhibition | T. cruzi beta-gal in NIH3T3, luminescence, 90 h | 300,000 compounds, 1.4% hits | inhibition, % (test concentration not listed) | AID 1885;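 active means mean inhibition across valid replicates above about 55%, limit read from the data; inconclusive means mean below that limit but half or more replicates reach it; inactive means mean below it, under half of replicates reach it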;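 further: signal also drops with host cell toxicity which is not excluded here; 0% = plate median of DMSO wells and 100% = zero luminescence signal; higher percent means less beta-gal luminescence so fewer parasites; stock transfer was 50 nL into about 50 µL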
Ecoli rRNA inh: selective bacterial rRNA inhibition in E. coli; E. coli WT GFP vs humanized-ribosome RFP mutants, fluorescence, 24 h; active compounds read low; DMSO median 0, no signal -100; GFP signal change (wild-type ribosome), % (test concentration not listed); 350,000 compounds, 1.6% hits; AID 720706;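 active means significant combined selectivity score with lowered wild-type GFP, culture density cut under 30%, mutant RFP and density less affected; inactive means any of these conditions unmet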; further: one replicate is shown; some compounds called inactive have numbers as strong as hits
Ecoli rRNA inh OD600: recorded beside Ecoli rRNA inh, whose call it bears; OD600 change, %; measured here: OD600 growth;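 optical density of the mix in the first replicate; 0 = DMSO median and -100 = no signal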
Ecoli rRNA inh RFP: recorded beside Ecoli rRNA inh, whose call it bears; RFP signal change, %; measured here: RFP humanized mutant strains;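 first replicate; 0 = DMSO median and -100 = no signal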
Numbers without * were called inactive; ? = inconclusive; · = no result given.

SMILES	Beta cell apopt	LANA-H2B inh	ALR inh	Calb FLC	B2AR ag	Bfl-1 A1 inh	T cruzi inh	Ecoli rRNA inh	Ecoli rRNA inh OD600	Ecoli rRNA inh RFP
CCOc1[nH]n(-c2ccccc2)c(=O)c1C=NCc1cccnc1	-5.0	3.9	-10.8	-0.1	-3.8	0.0	8.8	-0.2	-3.3	-2.1
Cc1cc(Cl)ccc1OC(C)C(=O)Nc1ccc(C(=O)Nc2ccccc2C(=O)O)cc1 (centres undefined)	4.1	-6.9	33.1	35.5	14.1	0.5	-59.7	-57.0	-70.8	-18.7
CC(C)(C#N)NC(=O)C(=O)c1c(-c2ccccc2)cc2ccccn12	1.6	2.1	-0.3	2.5	2.1	2.1	-1.4	1.6	6.4	5.5
CC1Cc2ccccc2N1CC(=O)Nc1ccc2c(c1)OCO2 (centres undefined)	-0.1	-0.7	-7.5	7.6	15.8	0.0	-0.8	·	·	·
COc1ccc(CCNC(=O)Nc2ccc(F)cc2F)cc1OC	-3.5	0.0	-9.2	2.5	-4.9	-0.1	-2.7	8.8	15.8	3.4
O=C(c1ccc(Cl)cc1)c1c[nH]c(C(=O)C(Cl)(Cl)Cl)c1	-16.5	-4.0	33.2	-6.5	35.2	0.1	-14.4	·	·	·
C=CCC1CCCC(=O)N2CC[C@H](O)C12 (some centres undefined)	-8.1	4.1	-9.5	2.9	-2.3	0.7	-0.2	·	·	·
CC1(c2ccc(OC(F)F)cc2)NC(=O)N(CC(=O)c2ccc3c(c2)OCO3)C1=O (centres undefined)	-3.9	0.2	-8.0	1.4	5.3	0.9	-5.1	-11.6	-16.7	2.1
CCC1CCCN1Cn1cnc2c([nH]c3ccc(Cl)cc32)c1=O (centres undefined)	2.3	1.3	-1.4	12.5	-2.9	-0.5	34.7	·	·	·
Cc1ccc(-n2c([O-])nc(-[n+]3ccccc3)c2C=O)cc1	5.5	-0.7	7.7	4.6	5.8	-0.8	-4.8	·	·	·
CCOC(=O)CCCNC(=O)CCCNC(=O)C(c1ccccc1)c1ccccc1	-4.2	1.3	-0.4	29.6	8.2	0.4	-4.8	8.8	1.4	-8.6
N#C/C(=C\c1ccc(OCc2ccccc2)cc1)C(N)=O	-3.8	15.3	-2.9	-8.1	-2.3	1.1	-8.7	-1.2	4.5	1.3
COC(=O)CCNS(=O)(=O)c1ccc2nsnc2c1	-0.7	-1.5	·	·	-2.2	0.4	·	12.1	22.6	-1.1
O=C(c1ccccc1N1CCOCC1)N1CCCC(Nc2ccc(F)cc2)C1 (centres undefined)	-5.1	0.0	98.5*	5.6	0.4	0.0	-7.8	1.9	-1.4	-4.5
CCOC(=O)c1nnn2c3ccccc3c(=O)n(C)c12	5.1	-5.8	0.7	9.2	-3.9	0.5	6.2	-5.6	-1.0	4.2

Entries listed so far that have a carbonyl joined to an NH by a bond outside any ring (6):
SMILES	Beta cell apopt	LANA-H2B inh	ALR inh	Calb FLC	B2AR ag	Bfl-1 A1 inh	T cruzi inh	Ecoli rRNA inh	Ecoli rRNA inh OD600	Ecoli rRNA inh RFP
Cc1cc(Cl)ccc1OC(C)C(=O)Nc1ccc(C(=O)Nc2ccccc2C(=O)O)cc1 (centres undefined)	4.1	-6.9	33.1	35.5	14.1	0.5	-59.7	-57.0	-70.8	-18.7
CC(C)(C#N)NC(=O)C(=O)c1c(-c2ccccc2)cc2ccccn12	1.6	2.1	-0.3	2.5	2.1	2.1	-1.4	1.6	6.4	5.5
CC1Cc2ccccc2N1CC(=O)Nc1ccc2c(c1)OCO2 (centres undefined)	-0.1	-0.7	-7.5	7.6	15.8	0.0	-0.8	·	·	·
COc1ccc(CCNC(=O)Nc2ccc(F)cc2F)cc1OC	-3.5	0.0	-9.2	2.5	-4.9	-0.1	-2.7	8.8	15.8	3.4
CCOC(=O)CCCNC(=O)CCCNC(=O)C(c1ccccc1)c1ccccc1	-4.2	1.3	-0.4	29.6	8.2	0.4	-4.8	8.8	1.4	-8.6
N#C/C(=C\c1ccc(OCc2ccccc2)cc1)C(N)=O	-3.8	15.3	-2.9	-8.1	-2.3	1.1	-8.7	-1.2	4.5	1.3

(listing goes on)
SMILES	Beta cell apopt	LANA-H2B inh	ALR inh	Calb FLC	B2AR ag	Bfl-1 A1 inh	T cruzi inh	Ecoli rRNA inh	Ecoli rRNA inh OD600	Ecoli rRNA inh RFP
Cc1ccc(C(C)C)c(OCCNCc2ccccc2)c1	12.2	3.8	-1.0	-28.9	11.4	0.6	31.7	-12.8	-19.0	4.4
Cc1ccc(N)c(C(O)(C(F)(F)F)C(F)(F)F)c1	·	-2.2	?	23.3	7.8	0.3	-6.6	1.4	5.3	14.2
CCOC(=O)N1C(=O)[C@@](CC)(c2ccccc2)N1C(=O)OCC	-0.7	0.8	·	-4.1	11.8	-1.1	-3.7	14.7	9.8	-5.1
COc1ccccc1N1CCN(C(=O)C2c3ccccc3Oc3ccccc32)CC1	35.5	·	·	-6.2	24.0	0.4	4.4	·	·	·
Cn1c(S(=O)(=O)c2ccc([N+](=O)[O-])cc2)nc(Br)c1Br	7.3	2.6	-9.3	14.8	0.9	0.0	13.7	18.0	5.5	3.5
CC(C)CC(c1nnnn1CCc1ccccc1)N1CCN(C(=O)c2ccco2)CC1 (centres undefined)	5.4	-0.7	-3.3	-2.2	-11.5	-0.1	9.5	·	·	·
Cc1nc2ccccc2c2c1C(=O)N(C)C2=O	4.1	-7.0	-5.0	2.7	0.3	0.0	-15.2	5.3	0.5	-0.7
CCN(CC)CCCNC(=O)c1[nH]c2ccccc2c1Sc1ccc(Cl)cc1	3.6	-1.6	-6.3	7.4	24.1	0.4	52.6	-47.6	-74.5	-7.4
CC(Cc1n[nH]c(=S)o1)c1ccccc1 (centres undefined)	-2.4	-1.2	39.5	-13.3	-5.8	0.4	-7.5	-17.3	-5.0	-8.6
Cc1ccc(-c2ccc(/C=N/c3ncn[nH]3)o2)cc1Cl	1.6	-2.0	64.1	-15.9	-1.5	0.4	-10.3	·	·	·
COC(=O)c1ccc(C(=O)OC)c(NC(=S)N2CCCC(CO)C2)c1 (centres undefined)	-4.2	-2.6	-4.5	0.5	7.3	0.1	-1.2	3.6	-0.9	-4.9
Cc1noc(C)c1C(=O)N1CCN(S(=O)(=O)c2cccc(Cl)c2Cl)CC1	-3.8	6.0	-3.8	-5.5	7.4	-0.7	-5.5	3.2	-6.6	0.9
COc1cc(CNC2CCCC2)cc(Cl)c1OCc1ccccc1Cl	?	-0.5	-19.9	-23.0	24.0	0.5	77.5*	·	·	·
O=S1(=O)N=C2CCCCCN2C(c2ccc(F)cc2)N1 (centres undefined)	0.7	-2.6	3.6	-7.9	-2.3	1.3	-28.5	·	·	·
CCCn1nc(NC(=O)c2cccs2)c2cc3ccccc3nc21	-5.2	-0.4	·	-0.6	4.0	-0.5	3.6	·	·	·
CN(Cc1ccccc1)c1nc2nonc2nc1N1CCCC(CN2CCCC2=O)C1 (centres undefined)	7.5	-1.8	-10.8	-4.6	-3.5	0.4	17.5	-2.6	-6.9	-1.1
COc1cccc(/C=N/Nc2nc(Nc3ccc([N+](=O)[O-])cc3)nc(N3CCCC3)n2)c1O	59.9	3.5	-12.3	72.1*	10.5	-1.1	54.9*	2.1	-0.6	-2.9
CCOC(=O)C1=C(CN2CCOCC2)NC(=O)NC1c1cc(C)ccc1C (centres undefined)	-0.4	-2.3	2.8	-38.4	-3.2	-0.1	2.0	·	·	·
CC[C@@]1(c2ccccc2)C(=O)N(C(=O)OC)N1C(=O)OC	-16.9	1.1	22.8	-6.7	1.8	?	7.1	22.8	14.1	-1.0
Cc1ccc(S(=O)(=O)N(Cc2cc3cc4c(cc3[nH]c2=O)OCCO4)CC2CCCO2)cc1 (centres undefined)	-2.2	-2.0	1.5	-4.0	-6.7	0.5	-10.5	·	·	·
CCOc1ccccc1NC(=O)CCNC(=O)c1ccc(Cl)cc1	1.5	-3.3	·	5.4	-1.5	-0.6	·	0.8	1.9	-2.5
COc1cccc(-c2ccc3c(N)c(C(=O)NC4CC4)sc3n2)c1	6.0	-0.4	·	-4.3	-91.9	-3.9	21.1	-11.9	-14.1	-0.9
[O-][n+]1c2ccccc2c2n1CCN1CCOC21c1ccc(Cl)cc1 (centres undefined)	2.7	1.4	23.3	·	4.9	0.4	·	·	·	·
N=c1sccn1CC(=O)Nc1ccccc1Cc1ccccc1	-15.1	-1.7	-6.5	-2.8	-2.9	1.4	-5.8	·	·	·
Cc1nc2ccccc2n1CSc1ccccc1	4.0	·	·	4.7	8.0	-0.8	1.6	-10.6	-9.2	-14.9
NC(=O)c1cc([N+](=O)[O-])c(Cl)cc1NCc1cccnc1	-2.3	0.5	-9.2	·	-3.3	-1.3	·	4.9	17.4	-9.5
CC(C)N(C(=O)COC(=O)c1cccc(N(C)C)c1)c1ccccc1	·	3.3	8.4	-7.1	-6.6	0.7	-3.0	-9.1	-17.8	0.3
CC1CCN(C(=O)c2ccccc2SCC(=O)NCC2CCCCC2)CC1	-4.2	0.5	2.2	-7.8	4.3	-0.5	3.5	-17.9	-17.4	2.1
COC(=O)Cn1cnc2c(cnn2-c2ccc(OC)cc2)c1=O	-2.5	-4.2	·	-3.8	0.1	-0.7	-7.6	3.9	-0.5	0.5
Cc1ccccc1NC(=O)c1sc2nc(N3CCOCC3)c3c(c2c1N)CCCC3	-4.0	-5.8	-10.4	-0.4	6.5	-1.4	29.5	0.8	-2.6	1.4
COC(c1ccccc1)c1nnc(CCC(=O)N(C)CCc2ccccc2)o1 (centres undefined)	-1.9	0.7	-5.0	19.8	-9.6	0.0	-1.5	·	·	·
Cc1ccc(S(=O)(=O)Nc2ccccc2C(=O)NCC2CCCO2)cc1 (centres undefined)	-1.8	1.8	-1.8	19.5	·	-0.6	12.9	-2.0	-5.7	-0.7
O=C(c1ccco1)N1CCN(Cc2cc(=O)c(OCc3ccccc3)co2)CC1	·	-1.7	·	14.6	-2.5	0.0	-0.5	11.1	7.9	0.6
O=C(Cc1csc(NC(=O)Nc2cccc(Cl)c2)n1)NC1CCCC1	·	-10.2	-8.3	-5.6	2.7	2.5	4.8	-0.4	-1.1	-1.3
COc1ccc(Cc2nnc3c4cnn(C)c4ncn23)cc1	-10.3	-2.1	-2.9	0.5	5.8	-0.2	13.2	·	·	·
COc1ccc(Oc2coc3cc(O)ccc3c2=O)cc1	-3.3	-1.6	-17.1	3.8	5.6	0.3	2.5	-10.5	-19.3	-1.0
COc1ccc([C@H]2[C@H](C(=O)OC(C)(C)C)N3N=Cc4ccccc4C3C23C(=O)c2ccccc2C3=O)cc1OC (some centres undefined)	-5.4	-0.2	-29.3	-0.9	-2.1	-0.3	2.8	·	·	·

A few values from the list.
In Calb FLC, COc1ccc([C@H]2[C@H](C(=O)OC(C)(C)C)N3N=Cc4ccccc4C3C23C(=O)c2ccccc2C3=O)cc1OC (some centres undefined) shows -0.9
In Calb FLC, COc1ccc(Cc2nnc3c4cnn(C)c4ncn23)cc1 shows 0.5
In Calb FLC, COc1ccc(Oc2coc3cc(O)ccc3c2=O)cc1 shows 3.8

Some of the compounds tested; count on the stated rates, not on these rows.
